# GLA inh pH 4.5 – alpha-galactosidase A (human) inhibition, pH 4.5; activity change, negative = inhibition, % at 105 µM; P06280; 230,000 tested, under 10 active; purified enzyme, 4-MU-alpha-Gal fluorescence, pH 4.5; inconclusive = small, poorly fitted or top-dose-only inhibition, or a rising curve; inactive = flat fitted curve, though single readings scatter; no compound was filed as active;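 note: 0% = full activity with enzyme and -100% = basal without enzyme; dose as in the result columns while the protocol names 77 µM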
# Target sequence (P06280 whole entry, looked up): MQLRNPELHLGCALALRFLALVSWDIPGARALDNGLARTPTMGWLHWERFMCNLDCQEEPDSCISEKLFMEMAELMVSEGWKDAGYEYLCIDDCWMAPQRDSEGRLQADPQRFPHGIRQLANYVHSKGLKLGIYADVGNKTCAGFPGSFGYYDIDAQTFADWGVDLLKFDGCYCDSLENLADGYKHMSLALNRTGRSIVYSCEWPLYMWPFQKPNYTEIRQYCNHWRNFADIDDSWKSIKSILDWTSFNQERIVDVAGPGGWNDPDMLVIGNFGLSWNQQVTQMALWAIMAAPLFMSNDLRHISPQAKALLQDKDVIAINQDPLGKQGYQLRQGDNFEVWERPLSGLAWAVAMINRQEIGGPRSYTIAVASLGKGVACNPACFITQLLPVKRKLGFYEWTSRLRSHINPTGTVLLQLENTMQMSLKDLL
# miR-21 FLuc – miR-21 reporter, rising signal; HeLa miR-21 FLuc reporter, luciferase, 48 h; Potency, µM (top dose mostly 38.3 µM), without a hit: at the highest dose reporter change, positive = more light; 340,000 tested, under 10 active; active = well fitted rising curve with a large enough effect; inconclusive = small, poorly fitted or top-dose-only effect; inactive = no such curve, though single readings can be large or run the other way;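 note: % of control where 0% means no effect; miR-21 action dims this reporter so a rising signal means less miR-21 action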
#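 Using DMEM plus 10% FBS, HeLa miR-21-FLuc cells are incubated with test compounds (final up to about 40uM) for 48 hours; firefly luciferase signal is then imaged following reagent-mediated lysis.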
# Rango release inh – inhibition of RanGTP-driven Rango-importin beta dissociation; Potency, µM (doses to about 46.1 µM), inactives show at the top dose activity change, negative = inhibition; O95149+P62826; Biochemical FRET Rango-importin beta, RanGTP-induced dissociation; 340,000 compounds, 0.071% hits; AID 540253; active means falling FRET ratio curve, often poorly fitted, with flat reads before Ran was added; inconclusive means other falling curves, or compound fluorescence or quenching; inactive means flat or rising ratio curve;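 note: potency is the fitted concentration of half-maximal effect; % of control where 0% means no effect; nearly all actives have a fitted effect of over 45% in size; -100% = wells without RanGTP and RCC1; the record marks most hits as doubtful in a second field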
#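 Quantitative HTS using a FRET biosensor: 0.1 uM Rango, 0.25 uM importin beta, 0.6 uM Ran, 2 mM GTP, 0.2 uM RCC1 final, PBS with DTT, Tween-20 and BSA. Post-read taken 45 min after Ran addition.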
# Rango complex inh – inhibitors of Rango-importin beta complex formation. Q14974. Rango CFP/YFP FRET sensor + importin beta, 45 min. Potency, µM (top dose mostly 92.2 µM), for inactives: at the top dose inhibition of complex formation. 340,000 compounds, 0.031% hits. AID 540263; active = rising FRET ratio curve, often small or poorly fitted; inconclusive = mostly compound fluorescence or quenching in the first reads; inactive = flat curves in all reads;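 note: potency is the fitted concentration of half-maximal effect; 0% = DMSO wells and 100% = buffer wells lacking importin beta; nearly all actives have a fitted effect of over 15% in size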
#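 Inhibition scored from the CFP 486 nm/YFP 530 nm FRET ratio 45 min after adding 0.125 microM importin beta to 50 nM Rango biosensor preincubated 5 min with compound (room temperature, PBS with DTT, Tween-20, BSA). No-importin wells as positive control.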
# The depositor's hits bear a star; ? = inconclusive; / = not tested or not shown; & = joins results of further samples; [ ] = another dose, or the depositor's remark.
# Labels used below: A = GLA inh pH 4.5; B = miR-21 FLuc; C = Rango release inh; D = Rango complex inh
1) CCOc1ccc(C(=O)NC2CC3CCCC(C2)N3Cc2ccccc2)cc1 (centres undefined)
  A: / | B: -3% | C: 9% | D: 0.3%
2) C[C@H](NC(=O)C1CC(=O)N(c2ccc3c(c2)OCCO3)C1)C(=O)NC1CCCC1 (some centres undefined)
  A: / | B: 0% | C: 11% | D: 3.7%
3) Cc1cccc(C)c1NC(=O)C(c1ccccc1)N1CCC2(CC1)OCCO2 (centres undefined)
  A: / | B: / | C: -5% | D: 2.6%
4) COc1cc(Cl)c(C)cc1NC(=O)c1ccc2c(c1)OCO2
  A: / | B: -17% | C: -3% | D: 2.6%
5) NC1=NC2(CCCCCC2)n2c(nc3ccccc32)N1
  A: 10 | B: -3% | C: -14% | D: -7.5%
6) CCn1c(/N=C/c2ccc(OC)cc2O)nc2ccccc21
  A: / | B: -6% | C: -1% | D: -0.1%
7) CCOC(=O)c1cccc2c(=O)c(C(=O)c3ccc(Cl)cc3)c(C(=O)OC)[nH]c12
  A: -2 | B: -3% | C: -13% | D: -1.9%
8) O=C(O)c1oc2ccccc2c1CSc1ccc(Cl)cc1
  A: / | B: -2% | C: -12% | D: 7.1%
9) COc1ccc(OCCC(=O)OCC(=O)NCCC2=CCCCC2)cc1
  A: -9 | B: 1% | C: 2% | D: -2.3%
10) CCC(/C=C1\Sc2ccc(OC)cc2N1CC)=C\c1sc2ccc(OC)cc2[n+]1CCCS(=O)(=O)[O-]
  A: 2[21.1 µM] | B: 9% | C: ? | D: -1.1%

# New compounds follow
# Labels used below: A = GLA inh pH 4.5; B = miR-21 FLuc; C = Rango release inh; D = Rango complex inh
11) CCOC(=O)C(NCc1ccccc1OC)(NC(=O)CC)C(F)(F)F (centres undefined)
  A: 9 | B: -1% | C: -4% | D: -0.7%
12) Cc1ccc(CS(=O)(=O)CCC(=O)NCc2ccc(F)cc2)cc1
  A: / | B: -5% | C: 11% | D: 2.2%
13) O=C1OC(Nc2ccc(Br)cn2)c2ccccc21 (centres undefined)
  A: 3 | B: 0% | C: 16% | D: 0.3%
14) CC1CCCCC12NC(=O)N(CC(=O)OCC(=O)NC(=O)c1ccccc1)C2=O (centres undefined)
  A: / | B: / | C: 10% | D: -0.6%
15) COc1ccc(CCNC(=O)COC(=O)c2ccc(Br)o2)cc1
  A: -2 | B: 8% | C: -11% | D: 4.0%
16) CC1(C)NC(=O)N(CC(O)CN(c2ccccc2)S(=O)(=O)c2ccccc2)C1=O (centres undefined)
  A: / | B: 2% | C: 10% | D: -0.5%
17) O=C(NC(=S)N1CCN(C/C=C/c2ccccc2)CC1)c1c(F)cccc1F
  A: 4 | B: -6% | C: 0% | D: ?
18) COc1ccccc1N1CCN(C(=O)COc2cccc3ccccc23)CC1
  A: / | B: -16% | C: 11% | D: 3.3%
19) Cn1c(=O)c2c(ncn2CC(=O)N2CCN(C(=O)c3ccco3)CC2)n(C)c1=O
  A: 3 | B: 0% | C: -8% | D: 0.5%
20) C[C@H](CO)N1C[C@H](C)[C@@H](CN(C)S(=O)(=O)c2ccccc2)Oc2c(NS(=O)(=O)c3ccc(F)cc3)cccc2C1=O
  A: / | B: / | C: -19% | D: -0.3%

# Continued:
# Labels used below: A = GLA inh pH 4.5; B = miR-21 FLuc; C = Rango release inh; D = Rango complex inh
21) CCOCCc1nn2c(=O)cc(CSCC(=O)Nc3ccccc3)nc2s1
  A: / | B: -7% | C: -14% | D: -2.6%
22) CCc1sc(C(=O)N(CCCOC)c2c(N)n(CC(C)C)c(=O)[nH]c2=O)cc1C
  A: / | B: / | C: -10% | D: 3.1%
23) O=C(Nc1cc(Cl)cc(Cl)c1)N1CCCN(Cc2ccccc2)CC1
  A: -3 | B: 4% | C: -1% | D: -4.1%
24) C[C@H](CO)N1C[C@H](C)[C@@H](CN(C)CC2CCCCC2)Oc2ccc(NC(=O)Cn3cnnn3)cc2C1=O
  A: / | B: / | C: 7% | D: -1.1%
25) COCCCNc1nc2c([nH]1)c(=O)[nH]c(=O)n2C
  A: / | B: -3% | C: -9% | D: -2.1%
26) CCCN1C(=O)/C(=C\c2ccncc2)SC1=Nc1ccccc1
  A: 9 | B: -12% | C: 14% | D: -0.2%
27) CCCNC(=O)CNC(=S)N(Cc1ccccc1F)C1CCCCC1
  A: -16 | B: 10% | C: 0% | D: 6.3%
28) O=C(CCCN1C(=O)/C(=C/c2ccc(F)cc2)SC1=S)NC1CCS(=O)(=O)C1 (centres undefined)
  A: / | B: 18% | C: -10% | D: 4.8%
29) O=C(CSc1nccn1Cc1ccco1)Nc1cccc(F)c1
  A: / | B: -23%&-5% | C: 11% | D: 1.0%
30) CCN(CC)C1CCN(c2nc3nonc3nc2NCCOC)C1 (centres undefined)
  A: 10 | B: -1% | C: -5% | D: 3.5%

# Following part:
# Labels used below: A = GLA inh pH 4.5; B = miR-21 FLuc; C = Rango release inh; D = Rango complex inh
31) COc1ccc(-n2c(SCC(=O)NCc3ccco3)nc3sc4c(c3c2=O)CCN(C)C4)cc1
  A: / | B: -15% | C: -33% | D: ?
32) CC(C)CCN(N=O)[C@@H](Cc1ccccc1)CN(N=O)[C@@H](Cc1ccccc1)CN(C)N=O
  A: -7 | B: -1% | C: -6% | D: -2.4%
33) CCC(CCC(=O)Nc1nncs1)C(=O)O (centres undefined)
  A: 2 | B: -2% | C: / | D: /
34) COc1ccc(NC(=O)NNC(=O)COc2ccc3ccccc3c2)cc1OC
  A: / | B: -1% | C: 10% | D: 1.7%
35) CCCN(S(=O)(=O)c1ccccc1F)S(=O)(=O)c1ccccc1Br
  A: / | B: 5% | C: 15% | D: 0.7%
36) Cc1c(Cl)cccc1NC(=O)CSc1nnc(C)n1-c1ccccc1
  A: -7 | B: -9% | C: 5% | D: 3.1%
37) CN(Cc1ccco1)C(=O)Cn1nc(-c2ccc(Cl)cc2)ccc1=O
  A: -18 | B: -4% | C: -8% | D: 2.5%
38) O=C(O)c1cc(S(=O)(=O)NCC2CCCO2)ccc1Cl (centres undefined)
  A: -1 | B: -5% | C: -16% | D: 0.3%
39) CN1CCN(C2=NC(=O)/C(=C/c3cn[nH]c3-c3ccccc3)S2)CC1
  A: -1 | B: -1% | C: -6% | D: 3.0%
40) CCN(CC)CCNCc1cc(Cl)c(OCC(=O)Nc2ccccc2)c(OC)c1
  A: -16 | B: -8% | C: -12% | D: -6.1%

# Next results
# Labels used below: A = GLA inh pH 4.5; B = miR-21 FLuc; C = Rango release inh; D = Rango complex inh
41) O=C(CC12CC3CC(CC(Br)(C3)C1)C2)NC1CCCC1
  A: / | B: -1% | C: 1% | D: 2.5%
42) CC(=O)N1c2c(cc(Br)cc2S(=O)(=O)N2CCN(c3ccccn3)CC2)CC1C (centres undefined)
  A: -1 | B: 15% | C: 3% | D: 2.5%
43) COc1cccc(NC(=O)CNC(=O)c2ccc([N+](=O)[O-])cc2)c1
  A: 1 | B: 3% | C: 7% | D: 3.0%
44) CCS(=O)(=O)N1CCN(C(=O)c2cc(OC)cc(OC)c2)CC1
  A: -7 | B: 1% | C: -3% | D: 0.2%
45) CCc1nnc(NC(=O)Cc2ccc(OCc3c(C)noc3C)cc2)s1
  A: -13 | B: 7% | C: -6% | D: 3.1%
46) CCC(=O)N(Cc1ccccc1)c1ccccn1
  A: 12 | B: -5% | C: -4% | D: 3.4%
47) O=C(NCCNC(=O)c1ccc(Cl)cc1Cl)c1ccco1
  A: / | B: -4% | C: 3% | D: -3.8%
48) CSc1nc(N(C)NC(=O)c2ccccc2)c2ccccc2n1
  A: -1 | B: 24% | C: 3% | D: 2.0%
49) O=C(CSc1nc2ccccc2c(=O)n1-c1ccccc1Cl)NC1CCS(=O)(=O)C1 (centres undefined)
  A: / | B: / | C: 1% | D: 0.2%
50) Cc1ccc(C(=O)NCc2ccccc2F)cc1S(=O)(=O)N1CCCC1
  A: / | B: -5% | C: -8% | D: -5.6%

# Along the list, from the results shown:
# GLA inh pH 4.5, entries 43–46: 1, -7, -13, 12
# Rango complex inh, entries 43–46: 3.0%, 0.2%, 3.1%, 3.4%
# Rango release inh, entries 43–46: 7%, -3%, -6%, -4%

# More structures
# Labels used below: A = GLA inh pH 4.5; B = miR-21 FLuc; C = Rango release inh; D = Rango complex inh
51) CN(C)/C=C/C(=O)/C=C/c1ccc(Cl)cc1Cl
  A: -3 | B: -29% | C: -2% | D: 0.0%
52) CC(C)CNC(=O)c1noc2c1CCCC2
  A: 6 | B: -19% | C: 0% | D: -0.1%
53) On1c(-c2ccccc2)nc2ccc(Cl)cc21
  A: 3 | B: -48% | C: 3% | D: -1.9%
54) CN(C)S(=O)(=O)c1cccc(COC(=O)C2=COCCO2)c1
  A: -1 | B: 1% | C: 8% | D: 0.6%
55) CC(C)CNC(=O)CSc1nc(-c2cccs2)cc(C(F)(F)F)n1
  A: 5 | B: -3% | C: -16% | D: -0.1%
56) N#CCC(=O)Nc1ccc(C(=O)OCC(=O)NNC(=O)c2ccc(Cl)cc2)cc1
  A: / | B: / | C: -14% | D: ?
57) COc1ccc(C2=NOC(C(=O)NCc3ccco3)C2)cc1OC (centres undefined)
  A: -16 | B: 17% | C: 0% | D: -0.9%
58) Cc1cc(C)cc(NC(=O)CCn2ccnc2C)c1
  A: -8 | B: 0% | C: 4% | D: -7.7%
59) COc1ccc(S(=O)(=O)N2CCCC(C(=O)NCCc3ccccc3)C2)cc1 (centres undefined)
  A: / | B: 8% | C: 1% | D: -0.8%
60) CCCCN(C(=O)CSc1nnc2ccccn12)c1c(N)n(Cc2ccccc2)c(=O)[nH]c1=O
  A: 16 | B: -1% | C: -15% | D: -0.8%

# (next part)
# Labels used below: A = GLA inh pH 4.5; B = miR-21 FLuc; C = Rango release inh; D = Rango complex inh
61) O=C(CSCc1cnn(-c2ccccc2)c1-n1cccc1)NCc1ccc2c(c1)OCO2
  A: -9 | B: -9% | C: -4% | D: 0.6%
62) Cc1nc(NCC2CCCO2)[nH]c(=O)c1CCC(C)C (centres undefined)
  A: 3 | B: -1% | C: -16% | D: -4.2%
63) COc1ccc(C(=O)N/N=C/c2sc(=O)n(Cc3cccc(C(=O)O)c3)c2Cl)cc1
  A: -5 | B: -3% | C: -15% | D: 2.7%
64) Cc1oc(-c2ccccc2F)nc1CN1CCC(C(=O)NCCC2=CCCCC2)CC1
  A: -4 | B: -10% | C: 25% | D: 0.8%
65) Cc1noc(C)c1COc1ccc(C(=O)N2CCN(S(=O)(=O)c3ccc(Cl)cc3)CC2)cc1
  A: / | B: / | C: 3% | D: 3.9%
66) Cc1cc(NC(=O)Nc2ccc(F)cc2F)n(C)n1
  A: -4 | B: 4% | C: -4% | D: 0.0%
67) Cc1ccc(N2CCN(C(=O)C3CCC(=O)N(Cc4ccc(Cl)cc4)C3)CC2)c(C)c1 (centres undefined)
  A: / | B: 19% | C: -14% | D: -0.3%
68) Cc1ccc(S(=O)(=O)NCC(c2ccc3c(c2)OCO3)N2CCOCC2)cc1 (centres undefined)
  A: / | B: / | C: 5% | D: 2.1%

# Among those listed so far, these contain a furan ring, fused or not.
# Labels used below: A = GLA inh pH 4.5; B = miR-21 FLuc; C = Rango release inh; D = Rango complex inh
8) O=C(O)c1oc2ccccc2c1CSc1ccc(Cl)cc1
  A: / | B: -2% | C: -12% | D: 7.1%
15) COc1ccc(CCNC(=O)COC(=O)c2ccc(Br)o2)cc1
  A: -2 | B: 8% | C: -11% | D: 4.0%
19) Cn1c(=O)c2c(ncn2CC(=O)N2CCN(C(=O)c3ccco3)CC2)n(C)c1=O
  A: 3 | B: 0% | C: -8% | D: 0.5%
29) O=C(CSc1nccn1Cc1ccco1)Nc1cccc(F)c1
  A: / | B: -23%&-5% | C: 11% | D: 1.0%
31) COc1ccc(-n2c(SCC(=O)NCc3ccco3)nc3sc4c(c3c2=O)CCN(C)C4)cc1
  A: / | B: -15% | C: -33% | D: ?
37) CN(Cc1ccco1)C(=O)Cn1nc(-c2ccc(Cl)cc2)ccc1=O
  A: -18 | B: -4% | C: -8% | D: 2.5%
47) O=C(NCCNC(=O)c1ccc(Cl)cc1Cl)c1ccco1
  A: / | B: -4% | C: 3% | D: -3.8%
57) COc1ccc(C2=NOC(C(=O)NCc3ccco3)C2)cc1OC (centres undefined)
  A: -16 | B: 17% | C: 0% | D: -0.9%

# Some of the compounds tested; rates above refer to the full screens.
